# Compound activity as filed in PubChem.
# B2AR ag: beta2AR agonists driving receptor internalization, primary screen, cell-based, FAP fluorogen, flow cytometry; AID 504454, 2011; 340,000 compounds, 0.43% hits; Beta-2 adrenergic receptor (Homo sapiens), P07550; response, % (test concentration not listed); Am2.2-beta2AR cells; reference of the scale not given here;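 active = response above a set limit, near 3 SD of response in nonfluorescent compounds, cut at about 42% in these data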;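 note: stock transfer was 100 nL into about 11 µL; a reference agonist was the positive control; negative values mostly stem from fluorescent compounds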
# LANA-H2A inh: blockers of LANA interaction with H2A/H2B – biochemical, FP readout, HTS, primary screen; 320,000 compounds, 0.6% hits; Protein LANA1 (Human herpesvirus 8 type P (isolate GK18)), Q9QR71; AID 2629, 2010; inhibition, % (test concentration not listed); cell-free LANA-H2A/H2B peptide, fluorescence polarization; in the data active = inhibition mostly above about 10%, no sharp cut-off; inactive = mostly below about 6.7%;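 note: stock transfer was 7.5 nL into about 10 µL; 0% = median of vehicle wells and 100% = median of positive control wells; one replicate is shown; the record names a cut of 25% in any replicate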
# FGF22 binding: binders of human FGF22 protein, primary screen, FGF22 synaptogenesis inhibitor project, biophysical, thermal shift, single point; Fibroblast growth factor 22 (Homo sapiens), Q9HCT0; recombinant FGF22 thermal shift, SYPRO orange fluorescence; percent of sucrose octasulfate shift, DMSO zero; 340,000 compounds, 1.5% hits; calls only at 9.99 µM; AID 651658, 2012;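 active = melting point raised past a set limit in the mean and every replicate; three in four hits are not shown here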
# Target sequence (Q9HCT0 whole entry, looked up): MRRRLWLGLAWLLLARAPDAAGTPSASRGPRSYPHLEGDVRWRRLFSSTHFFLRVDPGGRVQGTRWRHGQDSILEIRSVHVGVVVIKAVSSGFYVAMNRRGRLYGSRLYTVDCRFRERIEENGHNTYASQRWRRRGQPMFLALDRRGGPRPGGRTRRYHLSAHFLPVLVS
# E coli growth: E. coli growth inhibition, primary screen, OD600. OD600 absorbance (test concentration not listed). Escherichia coli growth, 23 h; hits give low values. 330,000 compounds, 0.21% hits. AID 1053175, 2014;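 active = OD600 absorbance below the run mean of sample wells minus 3.6 SD, in any replicate, cut at about 0.56 in these data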;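 note: stock transfer was 300 nL into about 60 µL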
# UCH37 inh: inhibitors of human UCH37 deubiquitinase, primary screen, biochemical, Ub-AMC cleavage, fluorescence. purified proteasome/UCH37. inhibition, % (concentration not given with the values). 330,000 compounds, 0.33% hits. AID 588478, 2011;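 active = mean of two replicates above 20%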;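 note: 0% = compound-free wells with enzyme and 100% = wells lacking proteasome; stock transfer was 100 nL into about 20 µL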
#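 Assay system: Proteasome-bound UCH37. Buffer or medium: pH 7.4 Tris-HCl (50 mM) with ovalbumin, ATP-MgCl2, DTT. Incubation: 30 min preincubation with enzyme, 25 min cleavage at room temperature. Measured by: fluorescence, ex 355 nm, em 460 nm. Read-out basis: percent inhibition. Control set: wells without proteasome as full block, compound-free enzyme plus substrate as uninhibited.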
# HNF4A DNA FP: change in binding of human HNF4A to DNA, primary screen, biochemical, fluorescence polarization, FITC-DNA; Hepatocyte nuclear factor 4-alpha (Homo sapiens), P41235; 1 h; activity change, % at 10 µM; 360,000 compounds, 0.3% hits; AID 1224865, 2016; in the data active = activity change above about 30%, passing the limit was not always enough;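 note: controls were the assay level and a saturating level of protein; the project sought stronger binding though the title names inhibitors; some compounds called inactive have numbers as strong as hits; positive values seem to mean higher polarization but the record does not say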
# Target sequence (P41235 whole entry, looked up): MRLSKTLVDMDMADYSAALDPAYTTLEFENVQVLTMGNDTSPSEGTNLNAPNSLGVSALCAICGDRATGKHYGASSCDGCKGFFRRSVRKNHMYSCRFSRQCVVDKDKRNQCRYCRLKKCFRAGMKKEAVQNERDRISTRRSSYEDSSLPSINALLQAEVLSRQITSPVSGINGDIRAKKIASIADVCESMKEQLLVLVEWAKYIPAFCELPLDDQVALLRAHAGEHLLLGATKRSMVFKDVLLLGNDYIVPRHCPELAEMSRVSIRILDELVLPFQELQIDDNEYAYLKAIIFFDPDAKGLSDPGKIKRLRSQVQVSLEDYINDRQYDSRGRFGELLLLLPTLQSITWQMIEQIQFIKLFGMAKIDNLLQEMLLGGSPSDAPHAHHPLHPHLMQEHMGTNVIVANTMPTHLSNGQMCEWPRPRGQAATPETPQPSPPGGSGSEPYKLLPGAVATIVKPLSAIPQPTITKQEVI
# ALR H2O2 inh: inhibitors of human ALR sulfhydryl oxidase, primary screen, biochemical, H2O2 detection, HRP-luminol luminescence, single point. FAD-linked sulfhydryl oxidase ALR (Homo sapiens), P55789. purified ALR, DTT oxidation. inhibition, % (test concentration not listed). 290,000 compounds, 3.8% hits;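 active = mean and each replicate at 75% or more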;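 note: stock transfer was 7.5 nL into about 7.5 µL; 0% = neutral wells and 100% = wells with inactivated enzyme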
# Target sequence (P55789 whole entry, looked up): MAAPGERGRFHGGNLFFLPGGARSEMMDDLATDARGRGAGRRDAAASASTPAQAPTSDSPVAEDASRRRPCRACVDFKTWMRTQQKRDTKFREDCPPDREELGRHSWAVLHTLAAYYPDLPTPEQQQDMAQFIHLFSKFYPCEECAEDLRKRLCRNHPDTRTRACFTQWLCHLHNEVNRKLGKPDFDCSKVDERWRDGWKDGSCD
# * hit, by the source's call; i = inactive; nt = no result given.
SMILES,B2AR ag,LANA-H2A inh,FGF22 binding,E coli growth,UCH37 inh,HNF4A DNA FP,ALR H2O2 inh
CCOC(=O)c1ccc(S(=O)(=O)NNc2ccc(C(F)(F)F)cn2)cc1,12.2,2.5,i,0.645,1.4,3.0,7.8
NC(=O)CSc1nnc(NC(=O)c2cccc(S(=O)(=O)N3CCCCC3)c2)s1,2.3,1.7,nt,0.681,6.4,-1.2,-20.2
CS(=O)(=O)N(Cc1ccccc1Cl)c1ccc(C(=O)NCc2ccccn2)cc1,35.2,-1.4,i,0.707,5.8,-2.2,-23.3
Cc1cccc(OC(=O)c2sc3ncn(C)c(=O)c3c2C)c1,3.0,5.8,i,0.707,1.2,0.8,1.8
Cc1cc(C)nc(/N=C(\N)Nc2ccc(OCc3ccccc3)cc2)n1,-2.3,-6.3,i,nt,nt,4.6,-37.2
COc1ccc(N2CCOCC2)c(NC(=O)c2ccc3c(c2)OCO3)c1,-3.8,-2.2,i,0.668,4.4,4.0,-2.7
Cn1nnnc1Sc1ncnc2scc(-c3ccc(C#N)cc3)c12,7.4,1.3,i,0.69,1.8,-0.7,7.9
CCCNC(=O)C(Cc1ccc(OC)cc1)NC(=O)c1ccc(Cl)cc1 (stereo unspecified),1.5,-2.5,i,0.727,-0.2,-1.9,1.7
Cc1ccc(N2CC(C(=O)N3CCC(C(=O)NCCCOC(C)C)CC3)CC2=O)cc1 (stereo unspecified),-0.2,-1.4,i,0.652,0.9,13.5,2.1
CC(=O)NC1CCCC(NC(C)=O)C1 (stereo unspecified),3.7,nt,i,0.666,-2.5,3.5,nt
CCOc1cc(S(=O)(=O)NCCCN2CCOCC2)c(C)cc1C,-1.1,-15.6,i,0.708,-3.6,-0.2,-7.3
COc1cccc(C(=O)N(c2ccc(OC)cc2OC)C2C=CS(=O)(=O)C2)c1 (stereo unspecified),4.5,-6.1,i,0.597,2.0,0.5,-15.0
COCCNC(=O)C(c1ccc(C)o1)N(Cc1ccco1)C(=O)c1snc(C(N)=O)c1N (stereo unspecified),1.9,-2.8,nt,0.695,-34.2,-0.4,-1.7
O=C(Nc1ccc(F)cc1)Nc1nnc(COc2ccccc2F)s1,6.8,-5.1,i,0.679,4.2,4.4,-1.6
Cc1cc(C)n(-c2nnc(C)n2N)n1,1.7,1.5,nt,0.766,1.5,-0.5,-12.0
O=S(=O)(c1ccc(Cl)cc1)N1CCNCC1,4.2,5.8,i,0.666,0.8,0.6,-23.7
COc1ccc(Cc2noc(-c3ccc([N+](=O)[O-])cc3)n2)cc1OC,1.5,1.1,i,0.627,5.6,0.7,-30.7
Cc1nc(NC(=O)COC(=O)CNC(=O)c2ccco2)c(Cl)cc1Cl,-4.5,-1.5,i,0.708,-0.8,6.0,17.3
CCc1cc(C(=O)OC)c(NC(=O)c2ccoc2C)s1,15.4,-6.7,i,0.718,-23.4,0.6,2.3
CCOC(=O)N1CCN(C(=O)CS(=O)(=O)c2cn(Cc3ccc(F)cc3)c3ccccc23)CC1,21.5,1.1,i,0.74,6.0,-0.7,-3.9
Cc1cc(NC(=O)CSc2ncccn2)no1,-3.6,-1.5,i,0.632,2.0,1.4,10.9
Cc1cc(C(=O)N2CCCCCC2)cs1,7.7,1.5,nt,0.672,1.3,3.1,-3.8
COc1ccc(-n2c(SCC(=O)C(C)(C)C)nc3ccsc3c2=O)cc1,-18.9,1.6,i,0.7,-0.3,1.5,-32.8
CC1CC(=O)c2cnc(N)nc2C1 (stereo unspecified),9.8,0.9,nt,0.681,1.7,-3.0,-2.3
O=C(CCCOc1ccccc1)Nc1ccncc1,1.6,-7.6,nt,0.658,-1.0,0.7,-4.9
O=C(COC(=O)c1ccc(Cl)c(S(=O)(=O)N2CCOCC2)c1)NCc1ccco1,0.7,1.1,i,0.676,4.4,-4.4,-0.6
CN1CC(=O)Nc2ccc([N+](=O)[O-])cc2C1=O,1.9,2.9,i,0.704,0.3,0.7,nt
O=C(c1ccncc1)N1CCN(S(=O)(=O)c2ccc(OC(F)(F)F)cc2)CC1,1.3,0.0,i,0.706,-0.4,-2.6,-14.4
CSCC[C@H](NC(=O)CCn1nnc2ccccc2c1=O)C(=O)O,-9.9,-9.1,nt,0.732,1.2,1.6,-22.7
Cc1cc(C)c(C(=O)COC(=O)c2ccc(NC(=O)CC#N)cc2)cc1C,4.9,-1.1,i,0.681,-4.3,17.2,16.5
O=C(c1ccco1)N1N=C(c2ccncc2)CC1(O)C(F)(F)F (stereo unspecified),6.4,3.2,nt,0.695,3.3,1.4,-5.1
CCCc1cc(-c2[nH]ncc2-c2ccc(C(=O)OCC)o2)c(O)cc1O,-2.1,-7.0,nt,0.665,-33.6,-1.1,3.7
CCOC(=O)c1sc(Nc2nc3c(F)cccc3s2)cc1C,3.2,-2.0,nt,nt,nt,-0.1,2.4
O=c1cc2c(nn1Cc1ccc(F)cc1)-c1ccccc1CC2,-0.1,-1.8,i,0.714,2.9,-1.8,-4.7
CCOC(=O)C(NC(C)=O)(N1CCc2ccccc2C1)C(F)(F)F (stereo unspecified),0.9,4.8,nt,0.733,5.7,1.8,14.2
CCn1cc(C(=O)OCC(=O)OC2CC(C)CCC2C(C)C)c(=O)c2ccc(C)nc21 (stereo unspecified),-3.4,-1.4,nt,0.719,1.8,7.8,nt
COc1cccc(NC(=O)CSc2nc3c(oc4ccccc43)c(=O)[nH]2)c1,3.2,3.1,nt,nt,nt,2.5,-5.6
Cc1cc(=O)n2[nH]c(N)c(N=Nc3ccccc3)c2n1,-1.4,-315.1,nt,0.664,15.9,-0.6,30.8
CCOC(=O)N1CCN(c2nc3ccccn3c(=O)c2C=O)CC1,7.2,-11.1,i,0.694,6.9,-0.1,-3.1
S=c1[nH]c(-c2ccc(Br)cc2)cn1CCc1ccccc1,-4.8,-2.1,i,0.771,-1.3,2.7,-28.2

# Ordered by heavy-atom count (ascending): part of the list above
SMILES,B2AR ag,LANA-H2A inh,FGF22 binding,E coli growth,UCH37 inh,HNF4A DNA FP,ALR H2O2 inh
O=c1cc2c(nn1Cc1ccc(F)cc1)-c1ccccc1CC2,-0.1,-1.8,i,0.714,2.9,-1.8,-4.7
Cc1cc(C)c(C(=O)COC(=O)c2ccc(NC(=O)CC#N)cc2)cc1C,4.9,-1.1,i,0.681,-4.3,17.2,16.5
O=C(COC(=O)c1ccc(Cl)c(S(=O)(=O)N2CCOCC2)c1)NCc1ccco1,0.7,1.1,i,0.676,4.4,-4.4,-0.6

# Next section
SMILES,B2AR ag,LANA-H2A inh,FGF22 binding,E coli growth,UCH37 inh,HNF4A DNA FP,ALR H2O2 inh
CC1=NCCN1S(=O)(=O)c1cccc([N+](=O)[O-])c1,2.5,1.4,nt,0.712,5.0,2.9,-17.8
Cc1cc(C)cc(OCC(=O)Nc2ccc(S(=O)(=O)Nc3ccccn3)cc2)c1,2.1,2.9,i,0.728,-8.0,-2.3,-4.6
O=C(COc1ccc(Oc2ccccc2)cc1)NCc1cn2ccccc2n1,-7.9,-4.7,i,0.681,-0.6,2.3,nt
Cc1ccc(S(=O)(=O)N(CC(O)CN2CCCCC2)c2cccc([N+](=O)[O-])c2)cc1 (stereo unspecified),-7.6,7.0,i,0.611,0.1,-2.6,nt
Cc1ccc(NC(=O)Cc2nc(CN(C)CC(=O)Nc3ccc(C)cc3)cs2)cc1,-2.5,4.1,i,0.708,1.2,-0.1,-3.7
CCn1c(C)nc2cc(S(=O)(=O)N3CCCCC3)ccc21,4.7,-0.6,nt,0.655,0.1,-1.1,-1.1
CC(=O)c1c(C)[nH]c(C(=O)Nc2ccccn2)c1C,0.8,-4.7,i,0.718,0.8,-1.9,5.0
CSc1ccccc1C(=O)C1CCCN(C(=O)NC(C)C)C1 (stereo unspecified),0.0,-8.3,i,0.698,4.4,-2.6,-1.0
O=C(NCc1cccc(Br)c1)C1CC(c2ccccc2[N+](=O)[O-])=NO1 (stereo unspecified),-8.0,4.0,i,0.691,1.3,2.7,-2.9
O=C(c1cc2nc(-c3ccco3)cc(C(F)(F)F)n2n1)N1CCN(c2ccccn2)CC1,38.9,-0.3,nt,0.665,-5.6,1.6,-3.0
COc1ccc(S(=O)(=O)N(CC(=O)N2CCN(C)CC2)c2ccc(C)cc2)cc1Br,-1.8,nt,i,0.714,0.6,-1.6,nt
COc1ccccc1-c1nc(C(=O)NCC2CCCO2)cc2c1[nH]c1ccccc12 (stereo unspecified),-4.4,8.1,nt,0.773,-30.2,4.7,98.2*
Cc1cccc(NC(=O)CCCNC(=O)c2ccc(Cl)cc2)n1,0.2,-2.6,i,0.728,1.6,2.7,0.6
COc1ccc(CN(CCCN2CCOCC2)C(=O)Nc2cccc(Cl)c2)cc1OC,5.2,2.7,nt,0.639,2.9,-0.7,-29.3
O=c1[nH]c(-c2cccs2)nc2ccccc12,-18.1,-2.5,nt,0.695,-2.9,-2.2,-1.3
CC(C)C[C@H](NC(=O)C1(c2ccccc2)CCN(C(=O)OC(C)(C)C)CC1)C(=O)N1CCC[C@H]1C(=O)O,3.6,-6.9,i,0.714,2.4,-3.3,7.5
Cc1sc(NC(=O)c2ccco2)c(CN2CCN(Cc3ccccc3)CC2)c1C,-19.1,-3.5,i,0.634,-5.4,2.5,13.1
C#CCOCCOCCOCCNc1nc(N2CCOCC2)nc(N2CCN(C(=O)[C@H](CCCCN)n3cc([C@@H](N)CO)nn3)CC2)n1,6.9,-1.1,nt,nt,2.4,2.1,-4.0
Cc1ccc2c(Cl)cc(Cl)c(OCC(=O)OCC(=O)Nc3ccc(C#N)cc3)c2n1,-3.2,4.6,i,0.641,1.0,7.5,-4.5
Cc1ccc(S(=O)(=O)N(CC(O)CN(C)C)c2ccccc2)cc1 (stereo unspecified),3.3,-2.5,nt,0.712,3.8,-2.0,-15.3
O=C(CCCN1C(=O)/C(=C/c2cccc(Br)c2)SC1=S)NCCCN1CCOCC1,-1.5,7.1,i,0.718,10.4,2.7,-2.2
C=CCn1c(SCC(=O)Nc2cccc(S(N)(=O)=O)c2)nc2sc(C)c(C)c2c1=O,4.8,-2.8,i,0.699,1.8,2.4,2.9
O=C(Nc1cccc(NC(=O)c2ccccc2Cl)c1)c1ccco1,-15.8,-1.6,i,0.712,-1.3,3.2,-16.9
Cc1ccc(OCC(=O)Nc2ccc(C)c(S(=O)(=O)N3CCCCCC3)c2)c([N+](=O)[O-])n1,-8.3,7.6,i,0.678,3.3,-3.3,-2.4
CN(C(=O)c1cccc(NC(=O)Cc2ccc(NC(=O)C3CCN(C(=O)C4CCCCC4)CC3)cc2)c1)C1CCCC1,-7.1,nt,i,0.692,-2.6,-1.1,nt
O=C(Nc1nncs1)C1CC(=O)N(C2CCCC2)C1 (stereo unspecified),-2.0,2.0,i,0.687,1.2,-6.5,1.4
COc1ccc(S(=O)(=O)NC2CCCC2)c(Cl)c1Cl,-6.0,-1.8,nt,0.672,-0.5,-1.1,18.6
COc1ccc(NC(=S)NC(C)C(c2ccccc2)N2CCOCC2)cc1 (stereo unspecified),-1.0,-5.1,i,0.703,0.3,0.1,0.2
Cc1cccc(C(=O)N2CCN(Cc3ccc4c(c3)OCO4)CC2)c1,3.3,3.1,i,0.751,2.5,4.9,-55.9
COc1cc(CNc2ccc(N3CCN(C(C)=O)CC3)cc2)ccc1OCc1ccc(F)cc1,3.8,-4.7,i,0.697,-2.3,2.5,99.1*
COc1ccc(NC(=O)c2ccc(Cc3ccc(C)cc3)o2)cc1,2.1,1.1,nt,0.624,7.0,-1.4,-31.9
Cc1noc(C)c1Cc1ccc(O)cc1,3.8,3.3,nt,0.717,-0.6,-4.3,29.5

# A portion of the library; rates above refer to the full screens.
